# BJeLR viability = BJeLR cell viability reduction; viability loss activity score, % (concentration not given with the values); BJeLR fibroblasts viability, CellTiterGlo ATP luminescence, 48 h; HRASV12, hTERT and SV40 LT/ST transformed; actives 0.64% (n = 30,000); AID 2275; in the data active = viability loss activity score above about 50%; about a fifth of its hits are not listed in these tables;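 note: higher score means fewer live cells and less ATP luminescence; stock transfer was 50 or 100 nL into about 30 µL; 0% = vehicle wells and 100% = a reference killing control; one replicate is shown; the record names a cut of 85%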
# A1 inhib = blocks A1 activity. caspase activation, % (test concentration not listed). AID 2241. actives 0.51% (n = 21,000). MEF A1-2A-BIM cells, caspase-Glo luminescence, 3 h; percent of clofoctol signal, DMSO as zero;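 active = most replicate scores above 10, or exactly half above 10 with mean activity above 10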;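 note: effector caspase 3 and 7 activity cleaving a DEVD luciferin substrate; 50 nL library stock added to about 30 µL; numbers are from one replicate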
# Numbers without * were called inactive; . = not tested or not shown; & = joins results of further samples. The list is partial, so the mix of outcomes need not match the whole.
# Values run as follows: BJeLR viability	A1 inhib
COc1cc(OC)c(OC)cc1C=O
→ -9.1	0.2
CCOCC(=O)NC1CCSC1=O (centres undefined)
→ 2.4	.
CCOC(=O)C1(c2ccccc2)CCN(C(=O)c2c(C)oc3ccc(OC)cc23)CC1
→ 1.9	-0.1
CCN1C[C@]2(C)CC[C@H](OC)[C@@]34C1[C@@]1(OCO[C@@]15C[C@H](OC)[C@H]1C[C@]3(O)[C@@H]5[C@H]1OC)[C@@H](OC(C)=O)[C@H]24
→ -3.4	0.4
CN1C2CCC1CC(OC(=O)c1cc(Cl)cc(Cl)c1)C2 (centres undefined)
→ 6.9	0.6
CCC(C)/C=C(C)/C=C/C1=CC2=C(Cl)C(=O)C(C)(OC(C)=O)C(=O)C2=CO1 (centres undefined)
→ 13	-1.3
Cc1nnc2ccc(-c3cccc(C(F)(F)F)c3)nn12
→ 2.4	0.0
CCC(O)CC1CCCC(CC(O)c2ccccc2)N1C (centres undefined)
→ -11	0.3
CN1CCN(Cc2cc(C(C)(C)C)c(O)c(C(C)(C)C)c2)CC1
→ -3.2	1.1
CCCc1nc(-c2ccccn2)nc(OC(=O)N(C)C)c1Cc1c(F)cccc1Cl
→ -4.1	-0.2
CCCN[C@@H]1CCc2c(OC)cccc2[C@@H]1C
→ -2.8	-0.7
CCCCSP(=O)(SCCCC)SCCCC
→ 15	0.6
CCN1CC=C(c2c[nH]c3ccccc23)CC1
→ 4.7	1.2
Fc1ccc(Sc2c(F)c(F)nc(N3CCNCC3)c2F)cc1
→ 0.1	2.4
CC(C)c1cccc(C(C)C)c1O
→ -0.4	-0.1
COP(=S)(OC)Oc1ccc(SC)c(C)c1
→ -4.7	0.0
O=C(Nc1ccc2c(C(F)(F)F)cc(=O)oc2c1)c1cc(Cl)cc(Cl)c1
→ -1.0	-0.7
CO[C@H]1[C@H](O)[C@H](O[C@H]2CC[C@]3(C)C4CC[C@]5(C)[C@H](C6=CC(=O)OC6)CC[C@]5(O)C4CC[C@@H]3C2)O[C@@H](C)[C@@H]1O (some centres undefined)
→ 116*	0.5
CNC(=O)CSP(=S)(OC)OC
→ 1.3	0.6
C[C@]12CCC(=O)C=C1C=CC1C2CC[C@@]2(C)C1CC[C@@]2(O)CCC(=O)O (some centres undefined)
→ -3.2	0.1
CC1=C(C(=O)OC(C)(C)C)C2(C(=O)Nc3ccccc32)C(C#N)=C(N)O1 (centres undefined)
→ -3.7	.
Cn1cccc1CNCCc1ccc(F)cc1
→ -0.1	0.0
CCCCC/C=C\C/C=C\C/C=C\C/C=C\CCCC(N)=O
→ -3.1	-0.8
C(=NC12CN3CN(CN(C3)C1)C2)c1cccnc1
→ -1.2	0.2
CCc1c(C(=O)OC)ncc2[nH]c3cc(OC)c(OC)cc3c12
→ -3.7	-1.3
Cc1cc(OC(=O)N(C)C)cc(=O)n1C
→ -2.8	0.3
N#Cc1c(/N=C/c2cc(Br)ccc2O)sc2c1C1CCN2CC1
→ -2.4	.
CO[C@@H]1[C@H](O)[C@@H](O[C@@H]2C[C@H]3CC[C@@H]4C(CC[C@]5(C)[C@@H](C6=CC(=O)OC6)CC[C@]45O)[C@@]3(C)[C@H](O)C2)O[C@H](C)[C@@H]1O[C@@H]1O[C@H](CO)[C@@H](O)[C@H](O)[C@H]1O (some centres undefined)
→ 111*	-0.2
N#CC(C#N)=Cc1ccc(O)cc1
→ -0.9	-2.4
O=c1c2ccccc2[nH]c(=S)n1-c1cccc(C(F)(F)F)c1
→ -1.5	0.6

# Part of the list above, set out differently.
SMILES | BJeLR viability | A1 inhib
Cc1cc(OC(=O)N(C)C)cc(=O)n1C | -2.8 | 0.3
CCCCSP(=O)(SCCCC)SCCCC | 15 | 0.6
N#CC(C#N)=Cc1ccc(O)cc1 | -0.9 | -2.4
O=c1c2ccccc2[nH]c(=S)n1-c1cccc(C(F)(F)F)c1 | -1.5 | 0.6
CO[C@@H]1[C@H](O)[C@@H](O[C@@H]2C[C@H]3CC[C@@H]4C(CC[C@]5(C)[C@@H](C6=CC(=O)OC6)CC[C@]45O)[C@@]3(C)[C@H](O)C2)O[C@H](C)[C@@H]1O[C@@H]1O[C@H](CO)[C@@H](O)[C@H](O)[C@H]1O (some centres undefined) | 111* | -0.2
Cc1nnc2ccc(-c3cccc(C(F)(F)F)c3)nn12 | 2.4 | 0.0

# Additional results
# Values run as follows: BJeLR viability	A1 inhib
CC(C)n1[nH]c(=O)c2c1NC(=O)CSC2c1ccc(Br)cc1 (centres undefined)
→ -10	0.7
CC1(C)C2CC(=O)[C@]3(C)C(CC[C@@]4(C)[C@H](c5ccoc5)OC(=O)C5OC543)[C@@]2(C)[C@@H](O)C[C@H]1O (some centres undefined)
→ -3.3	-0.6
CC(=O)Oc1ccc(/C=C/c2cc(OC(C)=O)cc(OC(C)=O)c2)cc1
→ -3.7	-6.1
COc1cc(C)c(Oc2cc(C)cc(O)c2)c(O)c1
→ -8.9	0.4
Cc1cc(C)cc(C(=O)OC2CC3CCC(C2)N3C)c1 (centres undefined)
→ 5.7	0.2
CC(C)OC(=O)Nc1cccc(Cl)c1
→ 4.0	-2.1
O=C(Nc1ccccc1)N1CCC2(CC1)OCCO2
→ -5.6	0.1
Cc1ccccc1CN1CCN(C(C)C)CC1
→ -3.2	0.1
S=C(Nc1ccccc1)N1CCCCC1c1cccnc1 (centres undefined)
→ -6.5	1.2
CCN1C[C@]2(C)CC[C@H](O)[C@]34C1[C@H](C[C@H]23)[C@@]1(O)C[C@H](OC)[C@H]2C[C@@H]4[C@@H]1C2O (some centres undefined)
→ -0.7	0.3
COC1=CC(=O)O[C@@H](/C=C/c2ccccc2)C1
→ -0.1	-1.2
CCNCC(O)c1cccc(O)c1 (centres undefined)
→ -3.2	-0.2
c1ccc2c(c1)[nH]c1cnccc12
→ -3.2	0.6
CCNCC(O)c1cccc(OC(=O)c2ccccc2C)c1 (centres undefined)
→ -6.7	-0.2
CCC12CCCN3CCC4(c5ccc(OC)c(O)c5N(C(C)=O)C4CC1)C32 (centres undefined)
→ 2.7	0.4
CC(C)[C@]12O[C@H]1[C@@H]1O[C@]13[C@]1(O[C@H]1C[C@H]1C4=C(CC[C@@]13C)C(=O)OC4)[C@@H]2O
→ 90*	16*
CCN(CC)CCc1c(C)c2ccc(O)cc2oc1=O
→ -1.3	2.1
CC12C/C(=C\c3ccccc3)C(=O)C[C@@H]1CCC1C2CCC2(C)C1CC[C@]2(C)O (some centres undefined)
→ -2.8	-0.2
C=C1[C@]23C(=O)O[C@@H](C)[C@]2(O)C(=O)O[C@@]1(C)[C@H](OC(C)=O)C1=C(C)[C@@]2(C=CC(=O)OC2(C)C)CCC13C (some centres undefined)
→ -1.9	0.5
Cc1ccc(-c2nc3ccc(C)cn3c2CC(=O)N(C)C)cc1
→ -1.0	-0.2
CC1=CC(=O)c2c(O)cccc2C1=O
→ -23	-1.1
CCCN(CCC)C1Cc2cc(OC)c(OC)cc2C1
→ -11	-0.4
COC(=NC1CCCCC1)C(O)c1c[nH]c2ccccc12 (centres undefined)
→ -1.1	.
CCC(=O)N1CC(=O)Nc2ccc(F)cc2C1c1ccccc1 (centres undefined)
→ -5.5	.
CN(C)Cc1c[nH]c2ccccc12
→ 0.0	0.1
CCOC(=O)C1=C(N)Oc2c(c(=O)oc3ccccc23)C1c1ccccc1 (centres undefined)
→ -1.8	0.5
C/C=C(\C)[C@H](O)[C@H](C)/C=C(C)/C=C/C/C(C)=C/Cc1[nH]c(OC)c(OC)c(=O)c1C
→ 26	0.0
Cc1ccc(NC(=O)c2cc(C)n(C(C)(C)C)n2)cc1
→ 2.9	-0.7
CCC(=O)Nc1ccc(Cl)c(Cl)c1
→ -3.9	-0.1
O=C1NC(=O)C(=Cc2cn(CCOc3ccc4c(c3)OCO4)c3ccccc23)C(=O)N1
→ 0.8	1.1

# A second format for some results above:
> O=C(Nc1ccccc1)N1CCC2(CC1)OCCO2
  BJeLR viability = -5.6	A1 inhib = 0.1

> Cc1ccccc1CN1CCN(C(C)C)CC1
  BJeLR viability = -3.2	A1 inhib = 0.1

# More structures.
# Values run as follows: BJeLR viability	A1 inhib
CCOP(=S)(OCC)SCSP(=S)(OCC)OCC
→ -2.6	-0.6
c1ccc2sc(C3(N4CCCCC4)CCCCC3)cc2c1
→ -2.3	-0.7
COC[C@H]1OC(=O)c2coc3c2[C@@]1(C)C1=C(C3=O)C2CCC(=O)[C@@]2(C)C[C@H]1OC(C)=O (some centres undefined)
→ 7.0	52*
C[C@@H]([C@H](O)c1ccccc1)N(C)C
→ -0.1	-0.7
COc1ccccc1N1C(=O)NC(=O)/C(=C\C=C\c2ccco2)C1=O
→ 33	1.9
CCC1CC2CC3(C(=O)OC)c4[nH]c5ccc(OC)cc5c4CCN(C2=O)C13 (centres undefined)
→ -7.6	0.7
CCOC(=O)c1cc2c(cn1)[nH]c1ccccc12
→ -0.3	-1.6
COc1cc2c(cc1-c1cc3cc4ccoc4cc3oc1=O)OCO2
→ 0.9	0.1
COC(=O)C1CC(=O)C[C@H]2[C@]3(C)C[C@@H](c4ccoc4)OC(=O)[C@H]3CC[C@@]12C (some centres undefined)
→ -1.2	0.1
COc1cc(C2c3cc4c(cc3CC3COC(=O)C32)OCO4)cc(OC)c1OC (centres undefined)
→ 64*	2.8
CNc1ccc2oc(C[C@@H]3OC4(CC[C@@H]3C)O[C@H](C(C)C(=O)c3ccc[nH]3)[C@H](C)C[C@H]4C)nc2c1C(=O)O (some centres undefined)
→ 72*	-1.2
C/C=C/[C@@H]1[C@H]2C[C@@H](C)CC[C@@H]2C(C)=C[C@H]1C(=O)c1c(O)c(-c2ccc(O)cc2)c[nH]c1=O
→ -0.3	-1.3
CCC(=O)Nc1cc(C(=O)N2CCC3(CC2)OCCO3)ccc1S(=O)(=O)c1ccc(C)cc1
→ 2.0	-0.9
CC[C@H]1C2C[C@H]3[C@@H]4N(C)c5ccccc5C45C[C@H](C2[C@H]5O)N3[C@@H]1O (some centres undefined)
→ 0.2	0.5
C=C1CC[C@]2(O)[C@]3(C)C[C@@]4(O)O[C@@]2([C@@H]1O)[C@]1(O)[C@@]3(O)[C@H]([C@H](OO)c2ccc[nH]2)[C@](C)(C(C)C)[C@@]14C
→ 2.2	-0.2
Cc1cc(-n2c(=S)[nH]c3ccccc3c2=O)ccc1Br
→ 0.8	0.6
Oc1ccc2c3c1O[C@H]1[C@@H](O)CC[C@@]4(O)[C@@H](C2)N(CC2CCC2)CC[C@]314
→ -2.7	1.6
C/C=C1/C[N+]2(C)CCC34C(=C(C=O)[C@H]1C[C@@H]32)Nc1ccccc14 (some centres undefined)
→ -5.4	0.2
COC(=O)c1cc2c(cn1)[nH]c1ccccc12
→ .	-0.6
CC1(C)C(C(=O)NN2C(=O)c3ccccc3C2=O)C1(C)C
→ 0.0	0.3
CCCN(CCC)C1CCc2cccc(O)c2C1 (centres undefined)
→ -4.0	-0.3
COc1ccc(C(=O)O)cc1OC
→ 11	1.0
COCc1cc(OC(=O)N(C)C)nc2c1c(C)nn2C
→ -1.3	0.4
CC(=O)OC1C2CCC1C(N1CCCCC1)CC2 (centres undefined)
→ 1.6	-0.3
CCCCC/C=C\C/C=C\C/C=C\C/C=C\CCCCCC(=O)NCCO
→ -1.0	0.7
CCOc1ccc(C(Nc2ccccc2)P2(=S)OCCCO2)cc1 (centres undefined)
→ 2.0	.
Fc1ccc(C(OCCN2CCN(C/C=C/c3ccccc3)CC2)c2ccc(F)cc2)cc1
→ -2.9	-0.9
CC1=CC(=O)C2=C(C)C[C@H](O)[C@@H]3[C@H](OC(=O)[C@H]3C)[C@H]12
→ 4.6	-0.1
CC(=O)O[C@H]1CC[C@]2(C=O)[C@H]3CC[C@]4(C)[C@@H](C5=CC(=O)OC5)CC[C@]4(O)[C@@H]3CC[C@]2(O)C1
→ 111*	0.3
C=CCN1C(=O)/C(=C/c2cc(C)n(-c3ccccn3)c2C)C(=O)NC1=S
→ -1.4	0.5
COc1c(C(C)C)cc2c(c1O)[C@@]1(C(=O)O)CCCC(C)(C)C1CC2 (some centres undefined)
→ -3.7	-0.7
C[C@@H]1CCOC(=O)C=CC=CC(=O)O[C@@H]2C[C@H]3O[C@@H]4C=C(C(=O)O)CC[C@]4(COC(=O)[C@H]1O)[C@]2(C)[C@]31CO1
→ 71*	1.0
COc1ccc(C(CN(C)C)C2(O)CCCCC2)cc1 (centres undefined)
→ -3.4&-6.9	-0.1&0.8
Nc1ccc(Br)cc1C(=O)c1ccccc1
→ -1.4	0.1
O=C(c1cnn(-c2ccccc2)c1-n1cccc1)N1CCC2(CC1)OCCO2
→ -1.9	0.1
C=C(C)[C@@H]1[C@H]2OC(=O)[C@@H]1[C@]1(O)C[C@H]3O[C@]34C(=O)O[C@H]2[C@]14C
→ 1.3	-0.9
Clc1cncc(N2CCNCC2)n1
→ -2.8	0.6
COc1ccc(-n2c(-c3ccco3)nc3ccccc3c2=O)cc1
→ 1.7	-0.1
COC(=O)C1=COC(C)C2CN3CCC4(C(=O)Nc5ccccc54)C3CC12 (centres undefined)
→ -13	0.6
CN(C)c1ccc(/C=C/C=C2/C(=O)NC(=O)N(c3ccccc3)C2=O)cc1
→ 60*	.
C=C(C)[C@@]12O[C@@H]1[C@@]1(C)C(=C[C@H]2O)CC[C@@H](O)[C@@H]1C
→ -4.7	0.0
C[C@]12CCC(=O)C=C1C=C[C@@H]1[C@@H]2CC[C@@]2(C)[C@H]1CC[C@@]2(O)CCC(=O)O
→ 9.5	0.3
Clc1cccc(N2CCNCC2)c1
→ -0.4	0.4

# Copied from the list:
# `O=C(c1cnn(-c2ccccc2)c1-n1cccc1)N1CCC2(CC1)OCCO2` @ BJeLR viability = -1.9
# `COc1ccc(-n2c(-c3ccco3)nc3ccccc3c2=O)cc1` @ BJeLR viability = 1.7
# `COc1ccc(C(CN(C)C)C2(O)CCCCC2)cc1` (centres undefined) @ BJeLR viability = -3.4&-6.9

# Screens from PubChem.
